Bioassay records (PubChem BioAssay)
VDR inh = Inhibitors of the vitamin D receptor (VDR): qHTS | 400,000 compounds, 0.93% hits | VDR-SRC2-3 peptide fluorescence polarization, 2 h | Potency, µM, for inactives: max response, negative = inhibition, most hits filed as inhibitors | Vitamin D3 receptor (Homo sapiens), P11473; active = well fitted inhibition curve with a large enough effect; inconclusive = small, poorly fitted or top-dose-only effect, or another doubt; inactive = no such curve, though single readings can be large or run the other way; note: series mostly up to about 120 µM
Target sequence (P11473 whole entry, looked up): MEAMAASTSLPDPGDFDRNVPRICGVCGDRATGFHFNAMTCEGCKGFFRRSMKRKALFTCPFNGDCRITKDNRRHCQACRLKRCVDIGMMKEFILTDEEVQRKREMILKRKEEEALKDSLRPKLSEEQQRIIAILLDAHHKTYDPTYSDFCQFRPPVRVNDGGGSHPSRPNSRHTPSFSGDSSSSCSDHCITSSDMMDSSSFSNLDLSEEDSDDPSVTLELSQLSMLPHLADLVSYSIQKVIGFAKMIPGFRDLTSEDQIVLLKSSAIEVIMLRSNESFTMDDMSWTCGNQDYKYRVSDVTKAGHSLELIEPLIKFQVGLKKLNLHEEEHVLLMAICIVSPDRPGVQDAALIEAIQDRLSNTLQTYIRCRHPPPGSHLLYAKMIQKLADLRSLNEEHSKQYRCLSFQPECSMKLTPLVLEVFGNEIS
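The screen uses fluorescence polarization to detect compounds that interfere with recruitment of the SRC2-3 coactivator peptide to VDR; plates are read after 2 h at room temperature.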
* hit, by the source's call; u = inconclusive; & = joins results of further samples. % is set by controls: 0 for no effect and ±100 for the full control effect; potency is the fitted concentration of half-maximal effect. Only part of the results is shown; the hit share may differ from the screen's.

Preview, three compounds:
SMILES	VDR inh
O=C(/C=C/c1ccccc1)Nc1ccc(S(=O)(=O)N2CCOCC2)cc1	14.7%
COc1ccc(C(=O)CN2CC(C)SC2=Nc2ccc(Cl)cc2)cc1 (centres undefined)	-12.9%
COc1ccc(Cl)c2c1[nH]c1nc(SCc3ccccn3)nnc12	17.6%

The whole of this part, repeating the preview:
SMILES	VDR inh
O=C(/C=C/c1ccccc1)Nc1ccc(S(=O)(=O)N2CCOCC2)cc1	14.7%
COc1ccc(C(=O)CN2CC(C)SC2=Nc2ccc(Cl)cc2)cc1 (centres undefined)	-12.9%
COc1ccc(Cl)c2c1[nH]c1nc(SCc3ccccn3)nnc12	17.6%
O=C(CNS(=O)(=O)c1cccc(F)c1)OCC(=O)N1CCCC1=O	2.8%
Cc1cc(C)n2nc(C(=O)OCC(=O)NCc3ccc(Cl)cc3)nc2n1	3.3%
Cc1ccc(C(=O)NCC(=O)NCC(c2cccs2)N2CCOCC2)cc1 (centres undefined)	0.2%
COc1cc(/C=N/NC(N)=O)ccc1OCC(=O)Nc1cc(C)c(C)cc1Br	-8.2%
O=C(OCC(=O)N1CCc2ccccc21)c1ccccc1[N+](=O)[O-]	1.4%
CC(=O)Nc1ccc(S(=O)(=O)NC2=NCN(C)CN2)cc1	-7.0%
O=c1c(N2CCc3ccccc3C2)csc2ccc(F)cc12	8.2%
Cc1ccc(C)c(S(=O)(=O)N2CCC3(CC2)OCCO3)c1	-22.3%
COc1ccc(-c2nc3c([nH]2)c(=O)n(C)c(=O)n3C)c(OC)c1	-0.4%
O=S(=O)(c1cccs1)N1CN(Cc2ccc(F)cc2)c2nc3ccccc3nc21	-10.8%
COc1ccccc1N1C(=O)CCC1(C#N)c1ccc(Br)cc1 (centres undefined)	-2.3%
O=C(NCCC(=O)N1CCNC1=O)OCc1ccccc1	-10.4%
CCc1cc(C(=O)N2CCCC(C(=O)c3ccc(Oc4ccccc4)cc3)C2)n(C)n1 (centres undefined)	-0.2%
Cn1c(=O)c2c([nH]c(=S)n2CCCc2ccccc2)n(C)c1=O	79.4µM*
O=S(=O)(NCCc1ccccc1)c1ccc(-n2cnnn2)cc1	7.4%
Cc1nn(-c2ccccc2)c2nc(-c3cccs3)cc(C(=O)NN)c12	-4.6%
C=C1CCN([C@@H](CC(C)C)C(=O)NCCCc2ccccc2)S(=O)(=O)c2ccccc21	-7.4%
O=C(COC(=O)c1cc(S(=O)(=O)N2CCOCC2)ccc1Cl)NCCc1ccccc1	-6.4%
NC(=O)CC(NC(=O)Cc1ccc(Cl)cc1)c1ccc(NCCCN2CCCC2=O)c([N+](=O)[O-])c1 (centres undefined)	-2.5%
Cc1cc(OCC(=O)NCC(c2ccc(F)cc2)N2CCOCC2)ccc1Cl (centres undefined)	-12.4%
Cc1ccc2c(c1)C1(C=CC(=O)C=C1)CC(=O)N2C	-9.9%
CCOC(=O)C1=C(C)NC(=O)NC1c1ccc(Br)o1 (centres undefined)	-16.0%
(next part)
SMILES	VDR inh
COc1ccc(-c2cnn(-c3ccccc3)c2N)cc1OC	-0.6%
COc1ccc(CCNC(=O)COC(=O)c2ccc(C)s2)cc1OC	2.4%
CCCCCn1c(=S)[nH]c2cc(C(=O)N3CCN(C(=O)OCC)CC3)ccc2c1=O	10.2%
Cc1cc(NC(=O)CSc2ncnc3sc(C)c(C)c23)no1	-4.1%
O=C(NCCC1=CCCCC1)C1CCC(CNc2nc(=S)[nH]c3ccccc23)CC1 (centres undefined)	-23.0%
Cc1c(Cl)cccc1NS(=O)(=O)c1cn(C)c(=O)n(C)c1=O	-9.2%
COc1ccc(CCNC(=O)COc2ccc3c(C)cc(=O)oc3c2)cc1OC	-19.6%
COc1cccc(C(c2nnnn2Cc2ccccc2)N2CCN(C(=O)c3ccco3)CC2)c1OC (centres undefined)	-5.4%
Cc1ccc(/C=N/n2c(-c3cccnc3)n[nH]c2=S)o1	-13.9%
COc1ccc(NC(=O)C2C(c3ccccc3)C2(Cl)Cl)cc1 (centres undefined)	13.4%
Cc1nc(CCN2C(=O)c3ccccc3C2=O)n[nH]1	u
C=CCn1c2ccccc2c2nnc(SCCN3CCCCC3)nc21	-7.9%
CCCCCSc1nnc(-c2ccc(Br)cc2)o1	-16.5%
Cc1ccnc(NC(=O)CN(C)S(=O)(=O)c2cccc3nsnc23)c1	-2.9%
COc1ccc(O)c(C(=O)CC(=O)c2cccnc2)c1	11.8%
O=C(NCC(c1cccs1)N1CCOCC1)c1cc(-c2ccccn2)nc2ccccc12 (centres undefined)	-2.1%
COc1ccc(/C=C/C(=O)NCCCc2ccccc2)cc1OC	-20.8%
C/C(=N\NC(=O)CNc1cccc(Cl)c1C)c1cccs1	13.5%
CNC(=O)CN1C(=O)COc2ccc(S(=O)(=O)N3CCCCCC3)cc21	-6.8%&-19.9%
CC1CCCCN1C(=S)Nc1ccc2nc3n(c(=O)c2c1)CCCCC3 (centres undefined)	-8.1%
CN1CCN(c2ccc(CNS(=O)(=O)Cc3cccc(C(F)(F)F)c3)cc2)CC1	14.7%
COc1ccc(C(C)=O)c(OC(=O)c2ccco2)c1	-2.4%
O=C(NCC(=O)N1CC=C(c2ccccc2)CC1)c1ccc(OC(F)F)cc1	-12.6%
CCOc1cc(CNn2cnnc2)cc(Cl)c1OCC(=O)NC(C)(C)C	-2.5%
Cc1ccccc1C(=O)c1ccc2c(c1)n(C)c(=O)n2C	8.2%
Continuation:
SMILES	VDR inh
CCc1ccc(NC(=O)Cn2c(=O)n(CCCCC(=O)NCc3ccccc3Cl)c(=O)c3ccccc32)cc1	-6.0%
Cc1cc(S(=O)(=O)NC2CC(C)(C)NC(C)(C)C2)c(Cl)cc1Cl	2.7%
CS(=O)(=O)ON=C1CCN(S(=O)(=O)c2ccccc2)CC1	8.0%
COc1cccc(C(=O)Nc2ccc(NC(C)=O)cc2)c1	-0.5%
CC(=O)Cc1nsc(NC(=O)c2c(-c3ccccc3Cl)noc2C)n1	-16.1%
Cc1nn(-c2ccc(F)cc2)c(Cl)c1/C=C/C(=O)OCC(=O)Nc1ccc(F)cc1F	-13.5%
CC(C)c1ccc(NC2CCCN(C(=O)CCn3cnnn3)C2)cc1 (centres undefined)	22.6%
Cc1ccc(NC(=O)C2CCCN(S(=O)(=O)c3cccc4cccnc34)C2)cc1 (centres undefined)	21.1%&14.1%
COc1ccccc1NC(=O)Cn1c(=O)n(Cc2cccs2)c(=O)c2cccnc21	3.5%
Cc1ccc(NC(=O)COc2cccnc2[N+](=O)[O-])cc1S(=O)(=O)N1CCCCC1	-20.3%
O=C(CN1C(=O)S/C(=C\c2ccc(F)cc2)C1=O)NC1C=CS(=O)(=O)C1 (centres undefined)	16.8%
COc1ccc(CCC(C)NCc2ccccc2OC)cc1 (centres undefined)	3.4%
N#C/C(=C\c1ccc(O)c(O)c1)C(=O)NCCCCc1ccccc1	u
COc1cccc(-c2nccc(NCc3ccc(OC)cc3OC)n2)c1	-8.0%
COc1ccc(OC)c2c1cc(C(=O)N[C@H](C(=O)N1CCC[C@H]1C(=O)O)C(C)C)n2C	-5.8%
O=P1(O)OP(=O)(O)OP(=O)(O)O1.[Al]	0.1%
Cc1cc(C(=O)N2CCCC(CNS(=O)(=O)c3cccs3)C2)nn1C (centres undefined)	-4.2%
CCn1ncc(/C=N/NS(=O)(=O)c2ccc(Cl)cc2)c1C	-8.1%
COc1cccc(OCc2nc3ccccc3c(=O)n2N)c1	8.8%
CCOC(=O)N1CCC(NC(=O)c2ccc(CO)c(C(=O)NC3CCN(C(=O)OCC)CC3)c2)CC1	-5.0%
O=C(COC(=O)c1ccc(Br)o1)NC1CCCCC1	11.3%
CCOc1ccc(CCNC(=O)c2cnc3sc(N4CCCCCC4)nn3c2=O)cc1	-0.3%
CCSC(=Nc1ccccc1)Nc1ccccc1	-1.4%
Oc1c(Br)cc(Br)cc1CNc1nccs1	-16.5%
O=C(NNC(=O)C1CC=CCC1)c1ccccc1O (centres undefined)	9.8%
Continued:
SMILES	VDR inh
COc1cc(NC(=O)c2ccco2)ccc1NC(=O)C(C)C	-3.0%
COC(=O)C(NC(=O)c1cccnc1Cl)C(C)C (centres undefined)	-10.9%
Cc1ccc(-c2nn(CCC(=O)NC(C)C)c(=O)c3ccccc23)cc1	-10.8%
O=C(N/N=C/c1ccco1)c1cc(C2CC2)[nH]n1	5.3%
CCc1noc(C)c1C(=O)NNC(=O)COc1ccc(C)c(C)c1	12.4%
O=C(NCc1csc(-c2cccs2)n1)Nc1cccc(Cl)c1	-3.3%
CCOC(=O)N1CCC2(CC1)C(C#N)=C(N)Oc1n[nH]c(CSc3ccc(C)cc3)c12	-12.8%
Cc1nnc2sc(SCC(=O)N3CCc4ccccc43)nn2c1=O	1.8%
COc1ccccc1C(=O)NCCCN1CCCC1=O	-1.8%
Cc1cc(C)c(-c2cc(NC(=O)CSc3n[nH]c(N)n3)n(-c3ccccc3)n2)cc1C	19.5%
CC(=O)c1ccc(-c2ccc(C(=O)NCC(c3ccco3)N(C)C)o2)cc1 (centres undefined)	1.4%
COCCNC(=O)C1CCN(C(=O)c2cc3sccc3n2Cc2ccc(Cl)cc2)CC1	21.5%
CCOc1ccc(CNCc2c(C(=O)O)n(Cc3ccccc3C)c3cc(OC)ccc23)cc1OC	15.3%
Cc1ccccc1NC(=S)c1ccc2ccccc2n1	7.8%
O=S(=O)(NC1CCCCC1Oc1ccccc1)c1ccc(Cl)cc1 (centres undefined)	-21.5%
COc1ccc(-c2ccc3oc(-c4ccsc4)cc3c2)cc1	-13.9%
CC1CC(C)(C)NC(=S)N1CCC(=O)NCCc1ccc(Cl)cc1 (centres undefined)	-2.4%
C=CCn1cnc2c(c1=O)c1nc3ccccc3nc1n2/N=C/c1cccc(OC)c1OC	-11.6%
Nc1cc(-c2ccc(Br)cc2)nc2cc(-c3ccccc3)nn12	10.1%
O=C(c1oc(=O)c2ccccc2c1-c1ccccc1)N1CCN(C2CCCCC2)CC1	-8.4%
O=C(O)c1ccccc1C(=O)NC1CCCc2ccccc21 (centres undefined)	-8.7%
CNC(=O)/C(C#N)=C\c1ccc(CNS(=O)(=O)c2ccccc2)o1	-7.4%
COCCn1c(=O)c(-c2ccccc2)nc2cnc(N3CCOCC3)nc21	8.9%
COc1ccc(OC)c(CC(=O)NC(c2ccccc2)c2ccccc2)c1	12.9%
Cc1ccccc1NC(=O)COC(=O)CN1C(=O)NC(C)(C)C1=O	16.7%

7 entries drawn at random from the list so far, as already listed:
SMILES	VDR inh
COc1ccccc1C(=O)NCCCN1CCCC1=O	-1.8%
O=C(O)c1ccccc1C(=O)NC1CCCc2ccccc21 (centres undefined)	-8.7%
CC1CC(C)(C)NC(=S)N1CCC(=O)NCCc1ccc(Cl)cc1 (centres undefined)	-2.4%
O=C(N/N=C/c1ccco1)c1cc(C2CC2)[nH]n1	5.3%
CCOc1ccc(CNCc2c(C(=O)O)n(Cc3ccccc3C)c3cc(OC)ccc23)cc1OC	15.3%
O=C(NCc1csc(-c2cccs2)n1)Nc1cccc(Cl)c1	-3.3%
C=CCn1cnc2c(c1=O)c1nc3ccccc3nc1n2/N=C/c1cccc(OC)c1OC	-11.6%

(cont.)
SMILES	VDR inh
CC(C)C[C@H](NC(=O)c1[nH]cnc1C(=O)N[C@@H](C)C(=O)OCc1ccccc1)C(=O)OC(C)(C)C	8.6%
O=C(CCN1C(=O)COc2ccccc21)NCCN1CCc2ccccc2C1	1.7%
COc1ccc(CNC(=O)COC(=O)CCC(=O)c2cccs2)cc1	5.7%
NC(=O)c1cc(Cc2ccccc2)sc1NC(=O)c1ccco1	u
Cc1noc(C)c1CSCC(=O)Nc1nc2ccc(S(C)(=O)=O)cc2s1	2.3%
Cc1ccc(-c2nnc(SCC#CCOC(=O)c3cccs3)o2)cc1	-15.3%
O=C(Nc1nnc(C2CC2)s1)c1cc(Cl)sc1Cl	-17.3%
Cc1nc(N2CCOCC2)nc(N2CCC(C)CC2)c1[N+](=O)[O-]	-16.5%
COc1ccccc1OC(=O)CCN1c2ccccc2Sc2ccccc21	-14.9%
COc1ccc(NC(=S)Nc2ccccc2)cc1	-23.8%&-9.4%
O=C(c1ccccc1NS(=O)(=O)c1cccs1)N1CCCC1	11.1%
COc1ccc(-n2c(-c3ccco3)nc3c(cnn3-c3ccccc3Cl)c2=O)cc1	-11.4%
CCN(CC)CCNC(=O)CNC(=O)c1nn(-c2ccc(OC)c(OC)c2)c(=O)c2ccccc12	-10.4%
COc1cc(NC(=O)c2cccs2)ccc1NC(=O)c1cc2ccccc2o1	-11.2%
CCCNC(=O)C1CCN(c2nc(C)cc(C)n2)CC1	-13.1%
COc1ccc(NC(=O)Nc2ccc(F)c(Cl)c2)cc1	9.5%
Cc1c(S(=O)(=O)Nc2ccc3c(c2)OCCO3)cnn1C	2.5%
Cn1c(SCC(=O)NC2CCCCC2)nnc1-c1ccncc1	23.4%
Cc1ccccc1OCC(=O)Nc1ccc2nc(SCC(=O)N(C)c3ccccc3)sc2c1	9.5%
Cc1ccnc(NC(=O)c2cccc(S(=O)(=O)NCc3ccccc3)c2)c1	4.9%
COC(=O)/C(=C\Nc1ccc(OC)cc1)NC(=O)c1ccc(Cl)cc1Cl	-3.5%
O=c1[nH]c(CSc2nc3ccccc3[nH]2)nc2c1cnn2-c1ccccc1	-6.1%
CC1(C)Cc2c(cnn2-c2ccccc2)C(NC(=O)CCCN2CCCCC2=O)C1 (centres undefined)	-13.1%
CC(=O)N(c1ccccc1)c1nnc(-c2cnc(C)cn2)s1	6.5%
O=c1[nH]nc(SCCS(=O)(=O)c2ccc(F)cc2)n1-c1ccccc1	-3.2%
Next part
SMILES	VDR inh
CCC(=O)c1cn([C@@H](CCC(OC)OC)CC(=O)OC(C)(C)C)cc1CC	-8.7%
Cc1ccc(NC(=O)Cn2c(-c3nonc3N)nc3ccccc32)cc1Cl	-7.9%
O=Cc1c[nH]c2ncccc12	-14.7%
Cc1nnc(SC(C)C(=O)Nc2ccc(S(=O)(=O)N3CCCCC3)cc2)s1 (centres undefined)	-15.3%
N#Cc1ccc(C(=O)OCC(=O)Nc2ccc(N3CCOCC3)cc2)cc1	-13.0%
CCN(CC)C(=O)c1cn(C)c(=O)c2cc(OC)c(OC)cc12	-2.0%
Nc1nc(SCC(=O)Nc2cc(S(=O)(=O)N3CCOCC3)ccc2Cl)n[nH]1	7.3%
